# Sfp PPTase inh: qHTS Assay for Inhibitors of Bacillus subtilis Sfp phosphopantetheinyl transferase (PPTase). 4'-phosphopantetheinyl transferase ffp (Bacillus subtilis), Q9F4F7. Biochemical Sfp PPTase activity, qHTS. Potency, µM, without a hit: max response, negative = inhibition, hits mostly inhibitors. hit rate 3.5% among 310,000. AID 1490, 2009; active means well fitted inhibition curve with a large enough effect; inconclusive means small, poorly fitted or top-dose-only effect, or another doubt; inactive means no such curve, though single readings can be large or run the other way;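 further: the enzyme is Sfp with the accession as filed and its product quenches rhodamine fluorescence; potency means the concentration at half of the fitted maximal effect; 0% = enzyme reaction without inhibitor and -100% = no enzyme wells; top concentration of the series not given in the record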
#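 Reaction rates are the 30-min fluorescence difference (ex 525, em 598 nm) in wells containing 15 nM Sfp, 5 uM rhodamine-CoA and 12.5 uM BHQ-2-YbbR at pH 7.6 with 10 mM MgCl2.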
# TRPML1 blocker: qHTS for Inhibitors of the Human Mucolipin Transient Receptor Potential 1 (TRPML1); hit rate 0.02% among 390,000; activity change, negative = inhibition, % (no concentration beside the values); Mucolipin-1 (Homo sapiens), Q9GZU1; TRPML1-inducible cells, Ca2+ dye fluorescence, FDSS; stronger effect = lower value; inhibition of EC80 agonist-evoked calcium signal; in the data active means activity change below about -50%; inconclusive means about -30% to -50%; inactive means above about -30%;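 further: stimulus is agonist 54-4 at its EC80 concentration; on the % scale 0 is the no-effect control and ±100 the full control effect; compound concentration not given in the record; the text of the record puts the active cut at -80%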
# Target sequence (Q9GZU1 whole entry, looked up): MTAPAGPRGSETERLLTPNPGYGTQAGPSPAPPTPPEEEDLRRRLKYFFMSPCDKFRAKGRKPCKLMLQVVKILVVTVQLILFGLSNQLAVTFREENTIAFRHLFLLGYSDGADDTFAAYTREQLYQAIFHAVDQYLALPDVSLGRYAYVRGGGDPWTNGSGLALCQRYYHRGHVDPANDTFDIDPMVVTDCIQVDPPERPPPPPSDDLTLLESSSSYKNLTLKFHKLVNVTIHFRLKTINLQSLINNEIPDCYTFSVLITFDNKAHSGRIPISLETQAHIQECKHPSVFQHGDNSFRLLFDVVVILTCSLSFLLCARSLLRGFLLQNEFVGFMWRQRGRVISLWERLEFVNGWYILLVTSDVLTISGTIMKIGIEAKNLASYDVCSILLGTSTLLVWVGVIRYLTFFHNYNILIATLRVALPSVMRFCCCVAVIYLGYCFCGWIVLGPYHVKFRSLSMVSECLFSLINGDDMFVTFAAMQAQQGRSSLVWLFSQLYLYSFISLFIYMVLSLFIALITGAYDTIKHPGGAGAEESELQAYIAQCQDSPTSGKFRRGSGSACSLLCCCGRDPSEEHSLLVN
#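 TRPML1-DL cells, Tet-induced overnight (~16 h, 37 °C) at 1,500 cells/well, were loaded with Ca8 no-wash dye plus quencher for 45-90 min at room temperature. Compounds were pinned during FDSS kinetic reading; agonist 54-4 at EC80 (4 uM final) then added.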
# gsp ag: qHTS for Agonist of gsp, the Etiologic Mutation Responsible for Fibrous Dysplasia/McCune-Albright Syndrome: qHTS; gsp mutant cells, cAMP HTRF, 30 min; control for the full effect not named in the record; Potency, µM (doses to about 76.9 µM), for the others: at the top dose activation (cAMP increase), actives largely listed as activators; hit rate 0.13% among 340,000; AID 624287, 2012; active = well fitted activation curve with a large enough effect; inconclusive = small, poorly fitted or top-dose-only effect, or another doubt; inactive = no such curve, though single readings can be large or run the other way; cell line not stated here;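 further: phosphodiesterase inhibitor Ro 20-1724 added with compounds to block cAMP breakdown; potency means the concentration at half of the fitted maximal effect; nearly all actives have a fitted effect of over 60% in size; about a fifth of the inactives were tested at one dose only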
#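 Cells stably selected in G418 were plated at 2000/well, grown 16-24 hr, then given compounds in DMSO with the PDE inhibitor […] (300 uM solution added) for 30 min at 37C; cAMP was read by HTRF.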
# ClpP mod: qHTS Assay for Activators of ClpP; purified B. subtilis ClpP, FRET peptide cleavage, 20 min; Potency, µM (top dose mostly 57.5 µM), inactives show at the top dose activity change, negative = active; hit rate 1.9% among 340,000; AID 651965, 2013; active = well fitted falling curve with a large enough effect; inconclusive = small, poorly fitted or top-dose-only effect; inactive = no such curve, though single readings can be large or run the other way; further: potency means the concentration at half of the fitted maximal effect; the source files actives as falling curves though it sought activators and does not explain the sign; nearly all actives have a fitted effect of over 65% in size; many hits overshoot -100%
# Target sequence (P80244 whole entry, looked up): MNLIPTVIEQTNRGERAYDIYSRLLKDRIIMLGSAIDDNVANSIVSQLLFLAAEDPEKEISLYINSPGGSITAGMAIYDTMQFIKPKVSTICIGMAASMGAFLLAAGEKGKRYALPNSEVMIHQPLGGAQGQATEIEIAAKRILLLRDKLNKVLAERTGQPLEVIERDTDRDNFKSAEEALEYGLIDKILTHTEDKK
#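 FRET quenching reversal measured ClpP activation: 10 microg/mL B. subtilis ClpP at pH 8 with the FRET-FV decapeptide, read at 430 nm after 320 nm excitation. The 20-min minus 0-min signal was scaled between DMSO/no-enzyme wells and ADEP (5.8 microM final).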
# TRPV1 potentiator: HTS Assay for Compounds that Act as Potentiators of the Vanilloid Receptor 1. hit rate 0.02% among 320,000. TRPV1-expressing cells, Fluo-8 calcium influx, capsaicin EC20 potentiation; host cell line not named in the record; control for the full effect not named in the record. potentiation, % at 8.33 µM; active means potentiation above 80%; inconclusive means 30% to 80%; inactive means below 30%; further: 0% is about no effect
#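 Fluo-8 calcium influx in TRPV1-expressing cells, kinetic read (ex 480/em 520 nm). Compound added and read 3 min for agonist activity, followed by capsaicin at EC20 final and 2 min further read for enhancement.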
# Menin MLL FP FL: qHTS Assay for Inhibitors Targeting the Menin-MLL Interaction in MLL Related Leukemias: Competition With Fluorescein Labeled MLL-derived Peptide. Fluorescence polarization, fluorescein-MLL peptide displacement from menin. 290,000 tested, under 10 active. FP activity change, % at 61.4 µM; inconclusive = falling polarisation curve, or a change in total fluorescence; inactive = total fluorescence flat and polarisation flat or rising; no compound was filed as active; the % refers to the polarisation; negative = inhibition;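 further: % of control where 0% means no effect; inhibitors lower the polarisation; unlabelled MLL peptide was the positive control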
# gsp antagonist: qHTS for Antagonists of gsp, the Etiologic Mutation Responsible for Fibrous Dysplasia/McCune-Albright Syndrome: qHTS. Potency, µM (top dose mostly 76.9 µM), for inactives: at the highest dose activity change, negative = inhibition, most hits filed as inhibitors. hit rate 0.4% among 340,000. gsp-mutant cells, cAMP HTRF, 30 min; control for the full effect not named in the record; active = falling curve of any shape with a large fitted effect; inconclusive = falling curve, mostly with a smaller effect; inactive = flat or rising curve; cell line not stated here;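 further: intracellular cAMP measured with PDE inhibitor Ro 20-1724 present during compound exposure; potency means the concentration at half of the fitted maximal effect; on the % scale 0 is the no-effect control and ±100 the full control effect; nearly all actives have a fitted effect of over 65% in size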
#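 Measurement of cellular cAMP by homogeneous time-resolved fluorescence following a 30 min compound exposure at 37C. The PDE inhibitor […] was present throughout; the assay buffer was DPBS with 0.05% BSA and 0.005% Tween 20.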
# Numbers without * were called inactive; ? = inconclusive; / = not tested or not shown; & = joins results of further samples; [ ] = remark or other dose.
SMILES,Sfp PPTase inh,TRPML1 blocker,gsp ag,ClpP mod,TRPV1 potentiator,Menin MLL FP FL,gsp antagonist
O=C(COC(=O)/C=C/c1ccc(F)cc1)NC1CCS(=O)(=O)C1 (stereo not drawn),/,-2,18%[15.4 µM],0.3%,?,/,7%
CCc1c(C)nc2c(Br)cccc2c1SCCC#N,-7%,-1,?,0.1%,-3,4.6,-11%
Cn1c(-c2cnn(-c3ccccc3)c2N)n[nH]c1=S,?,3,-48%[inhibitor],-2.4%,-13,0.3,4%
CCOC(=O)C1CCCN(C(=O)CN2C(=O)c3ccccc3C2=O)C1 (stereo not drawn),4%,-8,-10%,0.6%,-10,4.1,6%
Cc1nn(C)c(C)c1S(=O)(=O)N1CCC(C(=O)NC2CCCCC2)CC1,-1%,-4,-28%,-1.4%,6,1.6,1%
O=C1c2cnc3nc(SCc4ccccc4)nn3c2CC2c3ccccc3CCN12 (stereo not drawn),-10%,3,-13%,?,3,0.0,-3%
Cn1c(Cn2cnc(Cl)c2Cl)nc2ccccc21,11%,-1,-1%,-0.8%,?,-1.4,9%
Cc1cc(C)nc(NC(N)=NC2CCCCC2)n1,-3%,-7,12%,-1.8%,19,3.6,-2%
Cc1cc(C)n(-c2ccc(C(=O)Nc3ccccn3)cc2)n1,12%,-7,-4%,-3.0%,?,-1.6,1%
O=C1OC(N2CCN(Cc3ccccc3)CC2)c2ccccc21 (stereo not drawn),/,2,15%,-1.1%,/,/,9%
O=C(Nc1sccc1C(=O)NCc1ccco1)c1cccnc1,-12%,1,-46%,-0.7%,4,?,3%
CCOC(=O)N1CCC(NC(=O)c2cccn3c(=O)c4cc(Br)ccc4nc23)CC1,-5%,3,12%,?,0,-5.2,-29%
O=C(Cn1nnc(-c2ccccc2)n1)N=Nc1c(O)[nH]c2ccccc12,89µM*,9,27%,-0.5%,6,0.6,-6%
COc1ccc(CCN(C)C(=S)Nc2cccc(C)c2)cc1OC,7%,2,-17%[15.4 µM],/,9,-1.9,16%
CCN(CC(=O)Nc1c(F)cccc1F)C(=O)CCc1c[nH]c2ccccc12,7%,-12,?,/,18,-1.2,-6%
CCC1=NN2C(=N)/C(=C\c3ccc(OCCOc4ccccc4OC)cc3)C(=O)N=C2S1,-6%,21,1%[15.4 µM],-5.3%,14,1.1,2%
COCCNC(=O)CN1CCC(n2c(C)nc3cc(C(F)(F)F)ccc32)CC1,17%,-13,0%,0.2%,-9,2.0,2%
CN(C)S(=O)(=O)n1cnc([C@H]2c3c(ncn3Cc3ccccc3)C[C@H]3COC(=O)[C@@H]32)c1,/,2,-7%,1.8%,0,/,50µM*
O=C(NCc1cc(C(F)(F)F)ccc1F)C1CCC(=O)N(C2CC2)C1 (stereo not drawn),8%,4,-57%[inhibitor],-1.8%,17,0.2,11%
NC(=O)[C@@H]1CCCNc2c(I)cc([N+](=O)[O-])cc2C(=O)N[C@@H](CCC(=O)O)C(=O)N[C@@H](CO)C(=O)N1,10%,11,/,2.3%,9,2.8,-9%
COC(=O)c1cc2sccc2n1Cc1nc(-c2ccc(Cl)cc2)oc1C,0%,16&31,6%,1.7%&-1.9%,?,7.3,11%
O=C(O)/C=C/c1ccc(S(=O)(=O)Nc2ccc3[nH]c(=O)[nH]c3c2)cc1,13%,10,-3%[15.4 µM],/,-1,3.6,5%
O=C(Nc1nc2ccc(F)cc2s1)c1ccc([N+](=O)[O-])o1,/,-3,-71%[inhibitor],1.2%,/,/,/
Cc1nn(-c2ccc(Cl)cc2)c(Cl)c1/C=C(\C#N)C(N)=O,5%,0,25%,0.0%,-1,-2.4,-14%
C=CCc1c(C)nc(SCC(=C)C)[nH]c1=O,7%,-8,11%,1.8%,21,1.0,7%
C=CCN(c1ccccc1C(=O)NCC(=O)O)S(=O)(=O)c1ccc(C)cc1,19%,4,14%[15.4 µM],-1.7%,0,-1.0,10%
Cc1ccc(-n2nc3c(=O)n(CC(=O)NCCCc4ccccc4)nc(C)c3c2C)cc1,-1%,-13,-9%,-0.1%,7,0.1,-7%
N=c1sccn1CC(=O)Nc1ccc(SC(F)F)cc1,-22%,40,17%[15.4 µM],-1.9%,0,-3.7,7%
OC(CCc1cccc(Cl)c1)c1cccs1 (stereo not drawn),23%,-5,-7%,0.9%,8,4.8,-4%
CCCCC(=O)Nc1ccc(C(=O)Nc2nnc(COC)s2)cc1,10%,29,-16%,-3.2%,1,5.2,-10%
O=C(N/N=C/c1ccsc1)C1CC1,-8%,19,-15%,0.8%,4,-2.3,15%
CC(C)Cn1c(N)c(C(=O)CSc2cc(Cl)ccc2Cl)c(=O)n(C)c1=O,0%,/,/,/,20,-0.7,/
CCOC(=O)NN1C(=O)c2ccccc2NC1c1ccccn1 (stereo not drawn),17%,1,-45%[inhibitor],5.3%,3,2.1,5%
Cc1ccc(S(=O)(=O)N2CCOCC2)cc1NC(=O)COC(=O)CSc1ccc(Br)cc1C,1%,2,-11%,-0.3%,5,-0.4,-7%
COc1ccc(/C=N/N2C(=O)C3C4C=CC(CC4)C3C2=O)c(OC)c1 (stereo not drawn),18%,31,-2%[15.4 µM],/,6,-0.1,3%
Cc1cc(NC(=O)CCCN2C(=O)/C(=C/c3cccs3)SC2=S)no1,-6%,8,4%,2.8%,3,3.7,-12%
O=C(COC(=O)Cn1nnc2ccccc21)Nc1ccccc1Br,-7%,-4,-10%[15.4 µM],28µM*,-1,-0.5,0%
O=C(c1cc([N+](=O)[O-])ccc1Cl)N1c2ccccc2Sc2ccccc21,-11%,-6,10%[15.4 µM],0.4%,1,5.8,?
O=C(Cc1ccccc1)Nc1ccc(N2CCCCC2)cc1,7%,-6,-39%[inhibitor],-1.2%,-16,-0.6,8%
Cc1nc(-c2ccccc2)nc2[nH]c(=O)n(-c3ccccc3)c(=O)c12,-9%,3,-2%,-12%,-3,2.5,-9%
O=C(NCn1ccc(=O)[nH]c1=S)c1ccccc1,-20%,1,-32%[inhibitor],0.8%,12,2.0,-6%
Cc1ccc(-c2ccc(/C=N\n3cnnc3)o2)c(Br)c1,7%,37,?,/,?,5.3,1%
CCN(CCO)C(=S)Nc1cc(S(=O)(=O)N(C)C)ccc1C,3%,5,-14%[15.4 µM],/,4,1.5,17%
Cc1cc(C)c(NC(=O)c2cccs2)c(C)c1NC(=O)c1cccs1,10%,-3,-22%,/,6,-1.9,-5%
O=C(NC12CC3CC(CC(C3)C1)C2)c1ccc(N2CCNCC2)c([N+](=O)[O-])c1,4%,-4,-6%[15.4 µM],-25%,/,3.5,-35%
Cc1ccc(SCC(=O)N2CCN(c3ccccn3)CC2)cc1,18%,-5,31%,-28%,-10,1.8,-5%
COc1ccc(C(CC(=O)N2CCCC2)c2c(OC)cc(OC)c3c(-c4ccccc4)cc(=O)oc23)cc1 (stereo not drawn),-26%,42&-21,-27%,-1.7%,-11,3.4&2.6,5%
O=C1C(C=Nc2ccccc2O)=C(O)c2ccccc21,0%,7,4%,0.6%,3,-0.3,-3%
O=C(NC1CCCC1)C1CC(c2ccc(F)cc2)=NO1 (stereo not drawn),16%,-13,30%,1.1%,/,1.5,1%
Cc1ccccc1NS(=O)(=O)c1ccc(C(=O)NCCCN2CCOCC2)cc1,/,-15,7%,-6.6%,7,/,8%
Cc1c(NC(=O)C(C)OC(=O)CNC(=O)c2ccc(C(C)(C)C)cc2)c(=O)n(-c2ccccc2)n1C (stereo not drawn),-5%,-16,15%,-1.3%,-19,3.1,-11%
Cc1ccccc1C(=O)Nc1cccc(NC(=O)c2ncn[nH]2)c1,8%,-4,3%,-0.1%,-6,-1.4,21%
CC1CC(C)CN(CCCNC(=O)C2CCC(=O)N2C2CCCC2)C1 (stereo not drawn),14%,-7,?,1.6%,-20,0.0,6%
CC(C)CC1CC(=O)OC1(C)C(=O)CSc1nc2ccccc2s1 (stereo not drawn),-22%,13,6%,-2.5%,-20,-2.7,-2%
O=C(c1c(F)cccc1F)N1CCN(CCOc2ccccc2)CC1,6%,-20,19%[15.4 µM],-1.1%,3,-1.5,-11%
Cc1nc2c(sc(=S)n2Cc2ccco2)c(=O)n1CC(=O)Nc1ccccc1Cl,-22%,4,-24%,1.2%,-1,5.5,-15%
CSCCC(NC(=O)c1ccco1)C(=O)OC(C)C(=O)NC(=O)NC1CCCCC1 (stereo not drawn),5%,-14,?,-0.2%,?,3.9,-2%
CCn1cc(C(=O)N2CCc3ccccc32)c(=O)c2cc(S(=O)(=O)N(C)C3CCCCC3)ccc21,6%,-3,-17%,-3.0%,-3,3.1,-5%
Cn1cccc1/C=C1\Cc2ccccc2C1=O,11%,-10,24%,1.6%,-16,?,-21%
COc1cccc(C2NC(=O)NC(C)=C2C(=O)OCCSC)c1OC (stereo not drawn),/,-8,-1%,0.2%,/,/,-2%
O=C(CSc1ccc(F)cc1)N1CCOCC1,6%,7,3%,-1.0%,5,4.7,8%
COc1ccc(N(CC(=O)NC2CCCC2)C(=O)CCC(=O)Nc2cc(C)on2)cc1,12%,-6,-2%[15.4 µM],/,8,1.9,-7%

# Among those listed so far, 2 contain a CF3 group:
SMILES,Sfp PPTase inh,TRPML1 blocker,gsp ag,ClpP mod,TRPV1 potentiator,Menin MLL FP FL,gsp antagonist
COCCNC(=O)CN1CCC(n2c(C)nc3cc(C(F)(F)F)ccc32)CC1,17%,-13,0%,0.2%,-9,2.0,2%
O=C(NCc1cc(C(F)(F)F)ccc1F)C1CCC(=O)N(C2CC2)C1 (stereo not drawn),8%,4,-57%[inhibitor],-1.8%,17,0.2,11%
